Screening data as filed in PubChem.
HPGD block: blocks human HPGD enzyme activity; P15428; purified HPGD, NADH fluorescence kinetic, PGE2 substrate; Potency, µM, for the others: at the top dose activity change, negative = inhibition, usual class: inhibitors; 150,000 tested, 4.3% active; active = well fitted inhibition curve with a large enough effect (not every such curve was filed as active); inconclusive = small, poorly fitted or top-dose-only effect, or another doubt; inactive = no such curve, though single readings can be large or run the other way;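 note: top concentration of the series not given in the record; plate controls included wells without enzyme; inactives centre near -10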
Target sequence (P15428 whole entry, looked up): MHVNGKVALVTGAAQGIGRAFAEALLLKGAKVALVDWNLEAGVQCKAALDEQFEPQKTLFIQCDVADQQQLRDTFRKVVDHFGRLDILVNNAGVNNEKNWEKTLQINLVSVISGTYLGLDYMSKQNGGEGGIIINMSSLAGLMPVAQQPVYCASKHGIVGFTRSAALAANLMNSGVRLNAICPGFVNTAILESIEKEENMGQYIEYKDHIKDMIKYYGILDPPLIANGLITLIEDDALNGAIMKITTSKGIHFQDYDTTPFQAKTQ
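NADH formation kinetics: reaction with 30 uM PGE2 and 1 mM NAD+ (final), 20 nM enzyme, Tris-HCl pH 8 with Tween 20, after 15 min compound preincubation at room temperature. Fluorescence change, last versus first of five reads.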
Active calls of the source: *; u = inconclusive; & = joins results of further samples. % is set by controls: 0 for no effect and ±100 for the full control effect; potency is the fitted concentration of half-maximal effect.

HPGD block | compound
-8.4% | COc1cc2c(cc1OC)C(C)N(C(=O)c1ccc(Br)o1)CC2 (stereo not given)
u | Cc1cccc2sc(NNC(=O)c3cc(-c4cccs4)nc4ccccc34)nc12
-13.0% | Nc1n[nH]c(N)c1N=Nc1ccc(Cl)cc1Cl
u | O=c1c2c(nc3cc(-c4ccccc4)[nH]n13)CCS2
-18.7% | COC(=O)c1ccccc1NC(=O)CN1CCC(C(=O)c2ccc3c(c2)OCCO3)CC1
-1.0% | C=CC(=C)CC(NC)c1ccccc1 (stereo not given)
-5.7% | C#CCCCC(=O)Nc1ccccc1
-1.2% | CCOC(=O)c1nc(S(C)(=O)=O)ncc1N1CCOCC1
-5.9% | Cc1nnsc1SCC(=O)O
u | Cc1ccccc1N=Cc1cc2c(cc1O)OC(N)=C(C#N)C2c1ccccc1 (stereo not given)
14.1µM* | CCc1ccccc1N(C)C(=O)CCc1nc(-c2ccc(C)cc2)no1
-4.5% | CC1CCC2=C1C[C@H](C(C)(C)O)CC[C@@H]2C (stereo not given in full)
u | C#CCSc1nc(-c2ccccc2)cc(C(F)(F)F)c1C#N
-1.9% | O=C(CCc1ccc(S(=O)(=O)N2CCOCC2)cc1)NCCCN1CCCC1=O
-18.8% | CCOc1ccc(NC(=O)C2CCC(N3C(=O)C4CC=CCC4C3=O)CC2)cc1 (stereo not given)
-6.7% | CCCc1nc2ccccc2c(=O)n1/N=C/c1ccc(O)c(O)c1
u | CCCNC(=O)COC(=O)/C=C/c1ccc2c(c1)OCO2
u | O=C(NCc1ccco1)c1c[nH]c2ccc(S(=O)(=O)N3CCOCC3)cc2c1=O
-12.2% | COc1cc2c(cc1NC(=O)c1ccccc1F)CCCC2
-3.4% | COC(=O)c1sc(S(=O)(=O)N2CCC(C(N)=O)CC2)c(C(=O)OC)c1C
0.1% | Cc1cc2c(c(Sc3ccccc3)n1)C(=O)OC2
-11.8% | CS(=O)(=O)N1CCN(c2ccc([N+](=O)[O-])c(N3CCOCC3)c2)CC1
-23.8% | CSc1nnc(NC(=O)CCc2ccccc2)s1
-25.9% | CS(=O)(=O)N(Cc1ccc(Cl)cc1)c1ccc(C(=O)N/N=C/c2cc3ccccc3nc2Cl)cc1
-23.3% | COc1ccc(OCC(O)Cn2c(Nc3ccccc3)nc3c2c(=O)n(C)c(=O)n3C)cc1 (stereo not given)

(more compounds)
HPGD block | compound
-1.0% | COc1cc(C(=O)Nc2nc(OC)c(-c3ccccc3)c(OC)n2)cc(OC)c1OC
-1.7% | O=C(NCc1ccco1)C1CCCCN1S(=O)(=O)c1ccc(F)cc1 (stereo not given)
-5.3% | CC1=CC(=O)C=CC1(C)C(Cl)Cl (stereo not given)
-10.8% | C=CCn1c(SCC(=O)Nc2cc(C)on2)nc2sc(C)c(C)c2c1=O
u | Cc1ccc(C(=O)/C=C/Nc2ccccc2C(N)=O)o1
-1.0% | C[C@@H](O)C1NC(=O)[C@H](CCCCN)NC(=O)c2cc([N+](=O)[O-])cc(I)c2NCCC[C@@H](C(N)=O)NC1=O (stereo not given in full)
-29.3% | CC(=O)Nc1nc(SCc2cccc3ccccc23)n[nH]1
2.0% | Nc1nnc(CCOc2ccc(Cl)cc2)s1
-7.2% | Cc1nnc2n(-c3ccc(Cl)cc3)c(=O)c3c4c(sc3n12)CN(C)CC4
-15.5% | COCCN(CC(=O)Nc1cccc(C)c1)S(=O)(=O)c1ccc(S(=O)(=O)N2CCCC2)cc1
-25.3% | O=C(CSc1nnc(NC(=O)C2CC2)s1)NCc1ccco1
-23.4% | COC(=O)CSC(C(=O)Nc1ccc(C)c(C)c1)c1ccccc1 (stereo not given)
u | N#Cc1c(NC(=O)c2ccc(Cn3cc(Br)cn3)o2)sc2c1CCCCCC2
0.2% | CCOc1ccc(OCCN2CCCCC2)cc1
-16.5% | CC1Cc2ccccc2N1C(=O)CSc1nc2ccccc2s1 (stereo not given)
-6.8% | CCn1c2ccccc2c2cc(NC(=O)COC(=O)c3ccccc3F)ccc21
-11.0% | Cc1cc(NC(=O)CSc2nc(C3CC3)nc3sc(C)c(C)c23)no1
-23.1% | CC(C)CC(NC(=O)C1CCCCC1)C(=O)N1CCN(c2ccccn2)CC1 (stereo not given)
-7.8% | O=c1[nH]c(SCc2ccccc2Cl)nc2c1cnn2-c1ccccc1
u | CN1C=CC=C/C1=C1/SC(=S)N(Cc2ccccc2)C1=O
-3.0% | O=C1NCCN1Cc1cccc(Cl)c1
-7.5% | CCNC(=O)NC(=O)COC(=O)CCCSc1nc2ccccc2s1
-5.4% | COc1ccc(NC(=O)C(F)(OC)C(F)(F)F)c(OC)c1 (stereo not given)
12.6µM* | O=C(CSc1n[nH]c(-c2ccco2)n1)N1c2ccccc2Sc2ccccc21
-14.8% | O=S(=O)(c1ccc(Cl)cc1)c1ccccn1

More entries follow:
HPGD block | compound
u | C=CCOC(=O)C1=C(C)NC(C)=C(C(=O)OCC=C)C1c1ccc(O)cc1
-17.0% | COc1ccccc1N1CCN(Cc2ccc(OC)c3ccccc23)CC1
-12.7% | COc1cc(S(=O)(=O)N2CCN(C(=O)c3ccccc3F)CC2)c(OC)cc1NC(C)=O
-14.7% | Cc1cccc2cc(CN(C(=O)c3cnccn3)C3CCCCC3)c(Cl)nc12
-9.5% | O=C1N/C(=N\N=C\c2ccccn2)SC1Cc1cccc(SC(F)F)c1 (stereo not given)
-13.2% | Cc1ccc2nc(SCC(=O)Nc3ccc(C)c([N+](=O)[O-])c3)[nH]c2c1
1.3% | CCC1=C2CC[C@H]3C(=O)N(C)C(=O)[C@H]3[C@H]2[C@@]2(C)C(=NCc3ccccc3)OC(=O)N2C1=O
-5.4% | COc1ccc(/C=C2/C(=O)N=C3SCCN32)cc1
-16.4%&-5.3%&-5.4%&-5.1% | CCOC(=O)c1ncn2c1CN(C)C(=O)c1cc(F)ccc1-2
-18.9% | CCOC(=O)c1c(C)[nH]c(C)c1C(=O)CSc1nnc(-c2ccncc2)n1Cc1ccccc1
-12.3% | Cc1nc(CS(=O)(=O)c2ccc(Cl)cc2)cc(N2CCOCC2)n1
-17.0% | Cc1ccc(C)c(N2CCN(S(=O)(=O)c3ccc4c(c3)CCN4C(=O)CCC(=O)O)CC2)c1
-2.8% | Cc1cc(C)c(S(=O)(=O)N2CCN(c3nc4c(c(=O)n(C)c(=O)n4C)n3C)CC2)c(C)c1
-7.8% | CC(C)N1C(=O)CC(Nc2ccc(N3CCOCC3)cc2)C1=O (stereo not given)
-9.0% | Cc1noc(C)c1S(=O)(=O)N(C)CC(=O)NCc1ccccc1
-27.5% | O=C(Oc1ccc(-c2ccccc2)cc1)N1CCCCC1
-1.6% | CCN1CCN(C(c2cccs2)C(C)NC(=O)c2cccc(OC)c2OC)CC1 (stereo not given)
-14.0% | Cc1cc(OCCN2CCOCC2)ccc1[N+](=O)[O-]
-10.6% | N/C(COc1ccc(C(=O)O)cc1)=N\O
-5.0% | Cc1nc2ccccn2c1/C(O)=C1\C(=O)C(=O)N(CCN2CCOCC2)C1c1cccs1 (stereo not given)
-12.2% | CCOC(=O)c1c(N)sc(C(O)(C(F)(F)F)C(F)(F)F)c1-c1ccc(Cl)cc1
u | COc1ccc(C(=O)Nc2nnc(-c3ccco3)s2)cc1
-8.3% | NC(=O)c1ccc(C(F)(F)F)n(Cc2c(Cl)cccc2Cl)c1=O
-9.5% | Cc1sc2nc(C3CCCCC3)nc(SCC(=O)N3CC(=O)Nc4ccccc43)c2c1C
-4.8% | COCC(=O)NC(C)c1nc2ccccc2[nH]1 (stereo not given)

Compounds shown so far with a furan ring, fused or not, in the order listed:
HPGD block | compound
-8.4% | COc1cc2c(cc1OC)C(C)N(C(=O)c1ccc(Br)o1)CC2 (stereo not given)
u | O=C(NCc1ccco1)c1c[nH]c2ccc(S(=O)(=O)N3CCOCC3)cc2c1=O
-1.7% | O=C(NCc1ccco1)C1CCCCN1S(=O)(=O)c1ccc(F)cc1 (stereo not given)
u | Cc1ccc(C(=O)/C=C/Nc2ccccc2C(N)=O)o1
-25.3% | O=C(CSc1nnc(NC(=O)C2CC2)s1)NCc1ccco1
u | N#Cc1c(NC(=O)c2ccc(Cn3cc(Br)cn3)o2)sc2c1CCCCCC2
12.6µM* | O=C(CSc1n[nH]c(-c2ccco2)n1)N1c2ccccc2Sc2ccccc21
u | COc1ccc(C(=O)Nc2nnc(-c3ccco3)s2)cc1

The list goes on.
HPGD block | compound
-18.9% | C/C(=N\NC(=O)CNc1cccc(C(F)(F)F)c1)c1cccc(Br)c1
-7.8% | COc1ccc(NC(=O)c2cc(-c3cccnc3)nc3c(C)c(C)ccc23)c(OC)c1
7.08µM* | COc1ccc(OC)c(N(CC(=O)Nc2cccnc2)S(=O)(=O)c2ccc(C)cc2)c1
-4.3% | CNS(=O)(=O)Cc1ccc2[nH]cc(CCN(C)C)c2c1
-34.3% | Cc1ccc2cc(C(c3nnnn3C3CCCC3)N(Cc3ccco3)Cc3cccs3)c(=O)[nH]c2c1 (stereo not given)
-14.4% | CC(/C=N/NC(=O)c1cc(C(C)(C)C)[nH]n1)=C\c1ccccc1
22.4µM* | CCOc1ccc(C(=O)N/N=C/c2cc(Cl)ccc2[N+](=O)[O-])cc1
-13.7% | COc1ccc(/C=N/NC(=O)COc2ccc3ccccc3c2)c(C(=O)O)c1OC
-24.6% | O=C(COC(=O)c1cccnc1Cl)Nc1nc(-c2ccccc2)cs1
-3.8% | CC(=O)c1ccc(NC(=O)Nc2ccccc2)cc1
-3.7% | CCc1ccc(S(=O)(=O)NCc2cn3ccsc3n2)s1
-8.0% | Cc1cc(=O)oc(C)c1C(=O)Nc1cccc2ccccc12
-4.2% | COc1ccc(CCNC(=O)C(C)OC(=O)c2ccco2)cc1OC (stereo not given)
-28.9% | CCn1c(SCC(=O)NCC2CCCO2)nnc1-c1ccccc1 (stereo not given)
-12.1% | CCCN(CCC)CCNC(=O)C1CCN(Cc2nc(-c3ccc(Cl)cc3)oc2C)CC1
1.3% | Cc1n[nH]c(=O)n1-c1cccc(C(F)(F)F)c1
3.3% | CCOC(=O)c1ccccc1-c1csc(NS(=O)(=O)c2ccc(Cl)cc2)n1
-0.5% | CCC(=O)Nc1cccc(C(=O)c2ccccc2)c1
-4.6% | CC(C)C[C@@H](CC(=O)N[C@@H](CCCN)CC(=O)N[C@@H]1CCNC[C@H]1C(=O)N[C@H](CC(=O)N[C@@H](CCC(=O)O)CC(=O)O)Cc1c[nH]c2ccccc12)NC(=O)[C@@H]1CCCC[C@H]1N
-6.8% | O=C1CC(C(F)(F)C(F)(F)C(F)(F)C(F)F)=Nc2ccccc2N1
u | CCN(C(=O)c1ccc(NC(C)=O)cc1)c1ccccc1
-8.3% | COc1cc(OC)cc(C(=O)N2CCCc3ccccc32)c1
u | NC(=O)c1nn(-c2ccccc2)nc1NC(=O)Cn1nnc(-c2ccccc2)n1
-0.2% | O=C(O)CSc1ncccc1C(=O)O
-5.7% | CCCCNC(=O)c1cc(-c2ccc(F)cc2)on1

(cont.)
HPGD block | compound
-8.8% | Cc1nc2ccc(S(=O)(=O)NCC(=O)N3CCc4ccccc4C3)cc2s1
-14.5% | COCCCNC(=O)c1c(N)n(/N=C/c2ccccn2)c2nc3ccccc3nc12
-0.4% | O=C(NNS(=O)(=O)c1ccccc1)C(O)(c1ccccc1)c1ccccc1
-16.6% | CCC(C)NC(=O)c1cnc2n(c1=O)CCS2 (stereo not given)
-10.7% | CC(C)(C)NC(=O)COC(=O)c1cncc(Br)c1
u | Cc1ccccc1N(CC(=O)NC1CCCC1)C(=O)C1(C)CC(=O)N=C2C=CC=CN21 (stereo not given)
-6.5% | CCCNC(=O)N[C@@H](CCSC)C(=O)OC
-5.5% | Cc1cc(C(=O)Nc2ccc(S(=O)(=O)N3CCCC3)cc2)cs1
-13.3% | S=C(NCc1ccncc1)Nc1ccc(Cl)c(Cl)c1
-8.3% | CCCC(=O)Nc1nc(-c2ccc(OC)cc2)cs1
u | O=C(CSc1ccc(Cl)cc1)NCC1CCCO1 (stereo not given)
-9.7% | CC1Cc2ccccc2N1C(=O)CN1C(=O)COc2ccccc21 (stereo not given)
10µM* | CN1CCN(C(=O)c2cc3nc(-c4ccccc4)cc(C(F)(F)F)n3n2)CC1
-22.4% | Cc1ccc(SCc2[nH]nc3c2C2(C(=O)Nc4ccc([N+](=O)[O-])cc42)C(C#N)=C(N)O3)cc1 (stereo not given)
3.2% | CN1CCCC1c1cccnc1 (stereo not given)
u | CCOC(=O)c1c(N)n(CCOC(=O)c2cccs2)c2nc3ccccc3nc12
-17.5% | COC(=O)c1ccc(COC(=O)C(CCS(C)(=O)=O)N2C(=O)c3ccccc3C2=O)cc1 (stereo not given)
u | O=C(OC(C(=O)NCc1ccc2c(c1)OCO2)c1ccccc1F)c1ccco1 (stereo not given)
-23.6% | CCOc1ccc(/C=C(\C#N)C(=O)NCC2CCCO2)cc1OCC (stereo not given)
-3.3% | Cc1cccc(C)c1NC(=O)CN1CCNCC1
-3.4% | FC(F)(F)c1cc(NC(=S)NC23CC4CC(CC(C4)C2)C3)cc(C(F)(F)F)c1
-10.1% | O=C(Nc1ccccc1)c1cccnc1Nc1ccccc1
u | Clc1cccc(Nc2nnc(-c3ccccc3)c3ccccc23)c1
-2.1% | Cc1ccc(S(N)(=O)=O)cc1
-26.3% | Cc1noc(C)c1C(=O)OCC(=O)/C=C1\N(C)c2ccccc2C1(C)C

Later entries:
HPGD block | compound
-9.5% | Cc1cccc(OCC(=O)O/N=C(\N)Cc2ccc(Cl)cc2)c1
-17.2% | CC(=O)c1ccc(NC(=O)CCc2c(C)nc3ncnn3c2C)cc1
-27.8% | CCOc1ccc(NS(=O)(=O)c2ccc3[nH]c(=O)oc3c2)cc1
-23.1% | COc1ccc(/C=c2\s/c(=C/C(=O)c3ccc(C)cc3)[nH]c2=O)c(OC)c1

3 of the entries above in order of their number in HPGD block, falling.
HPGD block | compound
-9.5% | Cc1cccc(OCC(=O)O/N=C(\N)Cc2ccc(Cl)cc2)c1
-17.2% | CC(=O)c1ccc(NC(=O)CCc2c(C)nc3ncnn3c2C)cc1
-23.1% | COc1ccc(/C=c2\s/c(=C/C(=O)c3ccc(C)cc3)[nH]c2=O)c(OC)c1

A portion of the library; count on the stated rates, not on these rows.
